Bioassay records deposited in PubChem by Broad Institute.
FGF22 binding: FGF22 (human) thermal shift binding; recombinant FGF22 thermal shift, SYPRO orange fluorescence; percent of sucrose octasulfate shift, DMSO zero; calls only at 9.99 µM; 340,000 tested, 1.5% active; AID 651658;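 active = melting point raised past a set limit in the mean and every replicate; three in four hits are not shown here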
Target sequence (Q9HCT0 whole entry, looked up): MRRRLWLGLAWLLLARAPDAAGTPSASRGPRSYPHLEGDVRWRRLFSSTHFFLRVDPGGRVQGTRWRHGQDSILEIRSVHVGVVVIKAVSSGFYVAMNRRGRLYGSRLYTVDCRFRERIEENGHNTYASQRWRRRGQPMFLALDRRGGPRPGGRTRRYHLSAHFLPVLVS
Calls only; i = inactive. Not all compounds are listed; count on the stated rates, not on these rows.

SMILES | FGF22 binding
C[C@H]1CN([C@@H](C)CO)C(=O)c2cc(C#Cc3ccccc3F)cnc2O[C@H]1CN(C)S(=O)(=O)c1ccccc1F | i
COCC(=O)N1[C@@H](C#N)[C@H](c2ccc(-c3cccc(F)c3)cc2)[C@@H]1CO | i
C[C@@H]1CN([C@H](C)CO)C(=O)c2cc(-c3ccncc3)cnc2O[C@@H]1CN(C)S(=O)(=O)c1ccc(F)cc1 | i
COCC(=O)N[C@@H]1C=C[C@@H](CC(=O)N2CCCCC2)O[C@H]1CO | i
C[C@@H](NC(=O)C[C@H]1C[C@@H]2c3cc(NC(=O)CC4CC4)ccc3O[C@@H]2[C@H](CO)O1)c1ccccc1 | i
C[C@H](CO)N1C[C@H](C)[C@H](CN(C)S(C)(=O)=O)Oc2ccc(NC(=O)Nc3cccc4ccccc34)cc2C1=O | i
Cc1noc(C)c1NC(=O)N[C@@H]1CC[C@@H](CCNC(=O)C2CCCCC2)O[C@H]1CO | i
COCC#Cc1ccc2c(c1)O[C@@H](CN(C)C(=O)COC)[C@H](C)CN([C@@H](C)CO)S2(=O)=O | i
Cc1ccc(CN(C)C[C@@H]2OCc3cnnn3CCCC(=O)N([C@H](C)CO)C[C@@H]2C)cc1 | i
CC(C)C1=CC2C3C(C(C(C)C)=CC(=O)[C@@]3(C)O)C1C(=O)C2(C)O (stereo partly drawn) | i
O=C(C[C@@H]1CC[C@H]2[C@@H](COC[C@H](O)CN2C(=O)c2ccncc2)O1)Nc1ccc(-c2ccccc2)cc1 | i
Cn1c(=O)n2n(c1=O)[C@H](C1CC1)C=C1CN3[C@@H]([C@H](Cc4ccccc4)OC(=O)[C@@H]3Cc3ccccc3)[C@@H]12 | i
C[C@@H]1CN([C@H](C)CO)C(=O)c2cccc(NS(=O)(=O)c3ccccc3)c2O[C@H]1CN(C)CC1CC1 | i
O=C(C[C@H]1CC[C@H]2[C@@H](COC[C@@H](O)CN2S(=O)(=O)c2ccc(F)cc2)O1)NCc1ccc(Cl)c(Cl)c1 | i
Cc1ccc(S(=O)(=O)N(C)C[C@H]2OCCCC[C@@H](C)Oc3ccc(NS(=O)(=O)c4ccccc4)cc3C(=O)N([C@@H](C)CO)C[C@@H]2C)cc1 | i

Ordered by number of heavy atoms (low to high): part of the list above
SMILES | FGF22 binding
COCC(=O)N[C@@H]1C=C[C@@H](CC(=O)N2CCCCC2)O[C@H]1CO | i
CC(C)C1=CC2C3C(C(C(C)C)=CC(=O)[C@@]3(C)O)C1C(=O)C2(C)O (stereo partly drawn) | i
COCC(=O)N1[C@@H](C#N)[C@H](c2ccc(-c3cccc(F)c3)cc2)[C@@H]1CO | i
Cc1ccc(CN(C)C[C@@H]2OCc3cnnn3CCCC(=O)N([C@H](C)CO)C[C@@H]2C)cc1 | i
C[C@@H](NC(=O)C[C@H]1C[C@@H]2c3cc(NC(=O)CC4CC4)ccc3O[C@@H]2[C@H](CO)O1)c1ccccc1 | i
C[C@@H]1CN([C@H](C)CO)C(=O)c2cccc(NS(=O)(=O)c3ccccc3)c2O[C@H]1CN(C)CC1CC1 | i
O=C(C[C@H]1CC[C@H]2[C@@H](COC[C@@H](O)CN2S(=O)(=O)c2ccc(F)cc2)O1)NCc1ccc(Cl)c(Cl)c1 | i
C[C@@H]1CN([C@H](C)CO)C(=O)c2cc(-c3ccncc3)cnc2O[C@@H]1CN(C)S(=O)(=O)c1ccc(F)cc1 | i
C[C@H]1CN([C@@H](C)CO)C(=O)c2cc(C#Cc3ccccc3F)cnc2O[C@H]1CN(C)S(=O)(=O)c1ccccc1F | i
Cc1ccc(S(=O)(=O)N(C)C[C@H]2OCCCC[C@@H](C)Oc3ccc(NS(=O)(=O)c4ccccc4)cc3C(=O)N([C@@H](C)CO)C[C@@H]2C)cc1 | i

The listing continues.
SMILES | FGF22 binding
O=C(C[C@H]1CC[C@@H](NC(=O)c2ccc(F)cc2)[C@@H](CO)O1)NCCc1ccncc1 | i
CC(C)CC#Cc1ccc2c(c1)O[C@@H](CN(C)C(=O)C1CCOCC1)[C@H](C)CN([C@@H](C)CO)S2(=O)=O | i
CCCN(C)C[C@@H]1OCCCC[C@H](C)Oc2ccc(NS(=O)(=O)c3ccc(C)cc3)cc2C(=O)N([C@@H](C)CO)C[C@H]1C | i
C[C@H]1CN([C@@H](C)CO)C(=O)c2cccc(NC(=O)C3CCOCC3)c2O[C@@H]1CN(C)C(=O)Nc1ccccc1 | i
C[C@H](CO)N1C[C@H](C)[C@@H](CN(C)C(=O)Nc2ccc3c(c2)OCO3)Oc2ccc(NC(=O)Cc3cn(C)c4ccccc34)cc2CC1=O | i
C[C@H]1CCCCO[C@H](CN(C)C(=O)Nc2ccc3c(c2)OCO3)[C@@H](C)CN([C@@H](C)CO)C(=O)c2cc(NS(=O)(=O)c3ccc(Cl)cc3)ccc2O1 | i
CNC[C@@H]1Oc2ncc(-c3cncnc3)cc2C(=O)N([C@@H](C)CO)C[C@H]1C | i
COc1ccc(S(=O)(=O)Nc2ccc3c(c2)C(=O)N([C@H](C)CO)C[C@@H](C)[C@H](CN(C)C(=O)NC2CCCCC2)OCCCC[C@H](C)O3)cc1 | i
COc1cccc(S(=O)(=O)Nc2ccc3c(c2)[C@@H]2C[C@@H](CC(=O)N[C@@H](C)c4ccccc4)O[C@@H](CO)[C@@H]2O3)c1 | i
O=C(C[C@@H]1CC[C@@H](NC(=O)CCN2CCCCC2)[C@@H](CO)O1)Nc1nccs1 | i
O=C(C[C@@H]1CC[C@@H]2NC[C@@H](O)COC[C@H]2O1)NCCc1ccccc1 | i
CN1C(=O)c2cc(NC(=O)Nc3ccc(F)cc3)ccc2OC[C@@H]2O[C@@H](CC(=O)NC3CCC3)CC[C@H]21 | i
O=C(Nc1ccc(C(F)(F)F)cc1)Nc1ccc2c(c1)[C@H]1C[C@@H](CC(=O)N3CCc4ccccc4C3)O[C@@H](CO)[C@H]1O2 | i
Cc1cc2c(c(=O)o1)[C@@]1(C(=O)N(C)c3ccccc31)C1=C(CC(C)(C)OC1=O)O2 | i
CCC(=O)Nc1ccc2c(c1)OC[C@H](C)N(Cc1nccs1)C[C@@H](C)[C@H](OC)CN(C)C2=O | i
Cc1ccc(S(=O)(=O)N(C)C[C@H]2OCCCC[C@@H](C)Oc3ccc(NS(=O)(=O)c4cccs4)cc3C(=O)N([C@H](C)CO)C[C@H]2C)cc1 | i
CCC(=O)Nc1ccc2c(c1)OC[C@H](C)N(C(=O)c1ccc(F)cc1)C[C@@H](C)[C@@H](OC)CN(C)C2=O | i
CCCNC(=O)N(C)C[C@H]1Oc2ncc(C#Cc3ccccc3F)cc2C(=O)N([C@@H](C)CO)C[C@@H]1C | i
CCC(=O)Nc1ccc2c(c1)C(=O)N(C)[C@@H]1CC[C@@H](CC(=O)NCCN3CCCCC3)O[C@H]1CO2 | i
Cc1cc(N2CCNC[C@@H]2C)ccc1N1CCN(Cc2ccccc2)[C@H](C)C1 | i
C[C@H](CO)N1C[C@H](C)[C@H](CN(C)C(=O)CCN(C)C)OCc2ccccc2-c2ccccc2C1=O | i
CCCN(C)C[C@@H]1Oc2cc(C#CC3CCCC3)ccc2S(=O)(=O)N([C@@H](C)CO)C[C@H]1C | i
N#C[C@@H]1N[C@H](CO)[C@H]1c1ccccc1 | i
CO[C@@H]1CN(C)C(=O)c2cc(NC(=O)c3ccccc3)ccc2OC[C@H](C)N(C(=O)C2CC2)C[C@@H]1C | i
C/C=C/c1ccc([C@@H]2[C@H](CO)N(C(=O)CC)C23CN(CCC(F)(F)F)C3)cc1 | i
COc1ccc(NC(=O)N[C@@H]2CC[C@@H](CCNS(=O)(=O)c3cccc(Cl)c3)O[C@@H]2CO)cc1 | i
CC(C)CC#Cc1cnc2c(c1)C(=O)N([C@H](C)CO)C[C@H](C)[C@@H](CN(C)C(=O)CC1CC1)O2 | i
C[C@H](CO)N1C[C@H](C)[C@@H](CN(C)Cc2ccc(F)cc2)Oc2ncc(C#CCN(C)C)cc2C1=O | i
C[C@@H]1CN([C@H](C)CO)S(=O)(=O)c2ccc(C#CC3CC3)cc2O[C@H]1CN(C)Cc1ccccc1 | i
C[C@@H]1CN([C@H](C)CO)C(=O)c2cc(NC(=O)c3ccccc3)ccc2O[C@@H](C)CCCCO[C@H]1CN(C)C(=O)Nc1ccc(F)cc1 | i
C[C@@H]1CN([C@@H](C)CO)C(=O)c2ccccc2-c2ccccc2CO[C@@H]1CN(C)C(=O)c1ccc(F)cc1 | i
C[C@@H](NC(=O)C[C@H]1C=C[C@@H](NC(=O)CN2CCOCC2)[C@@H](CO)O1)c1ccccc1 | i
C[C@H](CO)N1C[C@H](C)[C@H](CN(C)C)Oc2ccc(NS(=O)(=O)c3cccs3)cc2C1=O | i
COc1ccc2c3c([nH]c2c1)[C@@H](CO)N(C(=O)C1CCCCC1)CC31CCN(C(=O)c2ccncc2)CC1 | i
COCC(=O)N1C[C@@H]2[C@H](c3ccccc31)[C@@H](CO)N2C(=O)c1ccncc1 | i
COc1ccc(S(=O)(=O)Nc2ccc3c(c2)CC(=O)N([C@H](C)CO)C[C@@H](C)[C@H](CN(C)S(=O)(=O)c2cn(C)cn2)O3)cc1 | i
COCC(=O)N1C[C@@H]2[C@H](c3ccccc31)[C@H](CO)N2C(=O)C1CCOCC1 | i
C[C@@H]1CN([C@H](C)CO)C(=O)c2c(c3ccccc3n2C)-c2ccccc2CO[C@@H]1CN(C)S(=O)(=O)CC(F)(F)F | i
C[C@H](CO)N1C[C@H](C)[C@@H](CN(C)C(=O)CCN(C)C)OCc2ccccc2-c2c(n(C)c3ccccc23)C1=O | i
C[C@@H]1CN([C@@H](C)CO)C(=O)c2cc(NS(=O)(=O)c3ccc(Cl)cc3)ccc2O[C@@H]1CN(C)C(=O)Nc1cccc2ccccc12 | i
CNC[C@H]1Oc2cc(-c3ccccc3F)ccc2S(=O)(=O)N([C@H](C)CO)C[C@H]1C | i
CC(=O)N1[C@H](CO)[C@@H]2c3ccccc3N(C(=O)Nc3cc(F)ccc3F)C[C@@H]21 | i
CC=Cc1ccc2n(c1=O)C[C@H]1[C@H](CO)[C@@H](C(=O)NCCC)[C@@H]2N1C(=O)Nc1cc(F)ccc1F (mixture of isomers) | i
C[C@@H]1CN([C@@H](C)CO)C(=O)Cc2cc(NC(=O)C3CC3)ccc2O[C@@H]1CN(C)Cc1ccc2c(c1)OCO2 | i
CC(C)C#Cc1ccc2c(c1)O[C@@H](CN(C)C(=O)Nc1ccccc1)[C@H](C)CN([C@@H](C)CO)S2(=O)=O | i
COc1cccc(-c2cnc3c(c2)C(=O)N([C@@H](C)CO)C[C@@H](C)[C@@H](CN(C)Cc2ccccc2)O3)c1 | i
C[C@H]1CN([C@@H](C)CO)C(=O)c2cc(NS(C)(=O)=O)ccc2O[C@@H]1CN(C)Cc1ccc(Cl)c(Cl)c1 | i
Cc1cccc(-c2ccc([C@@H]3[C@@H](CO)N4CCCCN(CCC(F)(F)F)C[C@H]34)cc2)c1 | i
C[C@@H]1CCCCO[C@H](CN(C)S(=O)(=O)c2cccs2)[C@H](C)CN([C@@H](C)CO)C(=O)c2cc(N(C)C)ccc2O1 | i
COc1ccccc1NC(=O)N1C[C@@H]2[C@H](c3ccccc31)[C@@H](CO)N2C(=O)C1CC1 | i
C[C@@H]1CN([C@H](C)CO)C(=O)c2cc(NC(=O)CCN3CCOCC3)ccc2O[C@@H]1CN(C)S(=O)(=O)c1ccccc1 | i
COCC#Cc1cnc2c(c1)C(=O)N([C@H](C)CO)C[C@H](C)[C@@H](CN(C)S(=O)(=O)c1cccc(OC)c1)O2 | i
CCCC(=O)N1CC2(CCN(C(C)=O)CC2)c2c(n(C)c3cc(OC)ccc23)[C@@H]1CO | i
C[C@H]1CCCCO[C@H](CN(C)C(=O)Nc2ccc3c(c2)OCO3)[C@@H](C)CN([C@@H](C)CO)C(=O)c2cc(NC(=O)Nc3cccc4ccccc34)ccc2O1 | i
C[C@H](CO)N1C[C@H](C)[C@H](CN(C)CC2CC2)Oc2ccc(NC(=O)c3ccncc3)cc2CC1=O | i
C[C@H](CO)N1C[C@H](C)[C@H](CN(C)S(=O)(=O)c2cccs2)OCCCC[C@H](C)Oc2ccc(NS(=O)(=O)c3ccc(F)cc3)cc2C1=O | i
CC(C)=CCN(C(=O)C#Cc1ccccc1)[C@H](CO)c1ccccc1 | i
CC(=O)N(C)C[C@H]1Oc2cc(C#Cc3ccccn3)ccc2S(=O)(=O)N([C@H](C)CO)C[C@@H]1C | i
C[C@H]1CCCCO[C@@H](CN(C)Cc2ccccc2)[C@@H](C)CN([C@@H](C)CO)C(=O)c2cc(N(C)C)ccc2O1 | i
C[C@@H]1CCCCO[C@@H](CN(C)C(=O)c2ccccc2)[C@@H](C)CN([C@H](C)CO)C(=O)c2cc(NC(=O)Cc3ccccc3)ccc2O1 | i

Continuation:
SMILES | FGF22 binding
C/C=C/c1ccc2c(c1)O[C@H](CN(C)C(=O)Nc1ccccc1)[C@H](C)CN([C@@H](C)CO)S2(=O)=O | i
CC(C)CC#Cc1ccc2c(c1)O[C@H](CN(C)C(=O)c1ccccc1)[C@@H](C)CN([C@H](C)CO)S2(=O)=O | i
CN(C)C(=O)c1cccc(-c2ccc([C@@H]3[C@@H](CO)N4CCCCN(C(=O)C5CCC5)C[C@@H]34)cc2)c1 | i
CN(C)C(=O)C[C@@H]1CC[C@H]2[C@@H](COc3ccc(NC(=O)c4ccc(F)c(F)c4)cc3C(=O)N2C)O1 | i
CCCC#Cc1ccc2c(c1)O[C@H](CN(C)C(=O)c1ccccn1)[C@H](C)CN([C@H](C)CO)S2(=O)=O | i
CCCC#Cc1cnc2c(c1)C(=O)N([C@H](C)CO)C[C@@H](C)[C@@H](CN(C)S(=O)(=O)c1cn(C)cn1)O2 | i
COc1ccccc1CNC(=O)C[C@@H]1C=C[C@H](NC(C)=O)[C@H](CO)O1 | i
O=C(NCC[C@H]1CC[C@@H](NC(=O)C2CCCCC2)[C@H](CO)O1)c1ccc(F)cc1 | i
C[C@@H]1CN([C@H](C)CO)C(=O)c2cc(NS(=O)(=O)c3ccc(Cl)cc3)ccc2O[C@@H](C)CCCCO[C@@H]1CN(C)C(=O)CCCN(C)C | i
